Mtb betalactam: beta-lactam sensitization of Mtb H37Rv, H37Rv | M. tuberculosis H37Rv growth with meropenem, percent inhibition; hits of this screen are not shown here | inhibition, % at 25 µM | actives 0.27% (n = 330,000) | AID 434955, 2010;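 active = about 74% or more and at least 40 points above the plate without the antibiotic, then above 30% in a dose series; inconclusive = first-round hits that could not be retested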;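 note: growth measured after seven days incubation then overnight dye step; 0% = bacteria only wells and 100% = bacteria with antibiotic; twin plates without the antibiotic show which effects depend on it; some results filed as inactive read as strong as hits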
YopH PTP inh: YopH tyrosine phosphatase inhibitors, primary screen, biochemical, fluorescence Ex485/Em525; actives 0.16% (n = 140,000); AID 898, 2007; inhibition, %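 (about 10 µM by stock and volumes)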;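 active = inhibition of 50% or more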;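 note: controls were vehicle for no effect and minimum signal wells for full effect; inactives centre near -20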
RecA splice inh: Mtb RecA intein splicing inhibitors, primary screen, biochemical, fluorescence, HTS; Protein RecA (Mycobacterium tuberculosis (strain ATCC 25618 / H37Rv)), P9WHJ3; cell-free RecA intein splicing; inhibition, %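 (about 9 µM by stock and volumes)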; actives 0.75% (n = 290,000); AID 2221, 2009; in the data active = inhibition above about 30%; inconclusive = no clear call, values can overlap the other calls;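 note: 0% = vehicle wells and 100% = reference inhibitor control wells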
Target sequence (P9WHJ3 whole entry, looked up, canonical isoform): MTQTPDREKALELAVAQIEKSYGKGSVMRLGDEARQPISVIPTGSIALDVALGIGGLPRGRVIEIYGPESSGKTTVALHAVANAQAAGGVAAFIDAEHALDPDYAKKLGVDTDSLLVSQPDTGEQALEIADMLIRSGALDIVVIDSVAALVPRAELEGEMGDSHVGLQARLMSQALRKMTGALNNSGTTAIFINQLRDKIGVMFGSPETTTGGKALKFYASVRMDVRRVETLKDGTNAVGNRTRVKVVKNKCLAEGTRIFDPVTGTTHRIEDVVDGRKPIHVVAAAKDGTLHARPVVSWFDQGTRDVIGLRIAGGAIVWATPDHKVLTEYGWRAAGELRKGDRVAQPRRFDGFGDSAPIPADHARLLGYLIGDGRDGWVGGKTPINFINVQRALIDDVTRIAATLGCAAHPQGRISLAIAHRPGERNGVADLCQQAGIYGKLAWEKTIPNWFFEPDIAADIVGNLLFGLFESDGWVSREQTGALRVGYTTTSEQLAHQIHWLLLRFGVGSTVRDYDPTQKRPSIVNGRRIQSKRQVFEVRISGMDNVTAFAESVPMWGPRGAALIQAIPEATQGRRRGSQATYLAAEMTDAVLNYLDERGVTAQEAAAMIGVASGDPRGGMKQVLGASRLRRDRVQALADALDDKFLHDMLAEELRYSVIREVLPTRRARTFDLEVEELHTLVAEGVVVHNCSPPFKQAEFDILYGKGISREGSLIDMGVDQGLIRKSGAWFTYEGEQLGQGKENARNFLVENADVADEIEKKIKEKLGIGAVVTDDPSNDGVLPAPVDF
Arbovirus inh: antivirals against arbovirus infection, primary screen, cell-based, full library, 10K replicate subset | arbovirus infection cell-based antiviral screen | inhibition, % at 10 µM | actives 0.37% (n = 200,000) | AID 1251, 2008;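 active = inhibition from about 30%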;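 note: bluetongue infection of BSR cells; cell survival read as ATP light after 72 h; 0% = infected wells without compound and 100% = uninfected wells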
Mtb growth: M. tuberculosis H37Rv growth inhibitors, H37Rv strain (AID 1626) | actives 0.95% (n = 220,000) | inhibition, % at 10 µM; hits with a dose series show IC50 in µM | M. tuberculosis H37Rv growth inhibition; higher % means a stronger effect;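 active = confirmed in a dose series; inconclusive = inhibition above 80% but not taken into the dose series; inactive = below 80% or under 30% at every dose of the series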;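 note: bacteria incubated seven days before Alamar blue readout; 0% = bacteria only wells and 100% = bacteria with antibiotic wells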
Arbovirus inh repeat: second read-out of Arbovirus inh, no call of its own (marks repeat the call); inhibition, %; measured here: 10K subset replicate screen; many hits read low in the repeat;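 first of two repeat runs on a subset; 0% = infected and 100% = uninfected wells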
Numbers without * were called inactive; ? = inconclusive; nt = no result given. Not all compounds are listed; count on the stated rates, not on these rows.

SMILES | Mtb betalactam | YopH PTP inh | RecA splice inh | Arbovirus inh | Mtb growth | others
O=C(c1ccc2[nH]c(=O)c(=O)[nH]c2c1)N1CCc2ccccc21 | ? | nt | 0.1 | nt | nt
O=C(O)c1ccccc1/C=N/Nc1ccc(S(=O)(=O)N2CCCC2)cc1[N+](=O)[O-] | -6 | nt | 4.9 | nt | -1%
Cc1cccc(NC2=C(Cl)C(=O)OC2OC(=O)c2ccco2)c1 (configuration not stated) | 80 | nt | 42* | -4 | 1%
Cc1ccccc1C(=O)Nc1cccc(C(=O)Nc2ccccc2C(=O)O)c1 | -2 | nt | -1.5 | nt | nt
O=C(NC(=O)N1CCSCC1)c1c(Cl)cccc1Cl | -1 | nt | -1.3 | nt | -14%
Cc1ccccc1NC(=O)/C(=C/c1ccco1)c1ccccc1 | 12 | 5 | 2.0 | -9 | 9%
O=C(NCCc1ccccc1)C1CCC(=O)N(Cc2ccc(Cl)cc2)C1 (configuration not stated) | -3 | nt | 3.2 | nt | nt
CC(C)(C)OC(=O)N1CCC(Cc2cc(-c3ccccc3)no2)(C(=O)O)CC1 | -1 | nt | -2.0 | nt | nt
CCOP1(=S)Oc2cc3c(cc2C(C(=O)OC)(C(F)(F)F)O1)OCO3 (configuration not stated) | 5 | -20 | -7.1 | 5 | -1%
O=C(c1cccs1)N1CCC(c2nc(-c3ccc(S(=O)(=O)N4CCOCC4)cc3)no2)CC1 | -17 | -26 | -3.7 | -2 | -11%
CSCCC(=O)N1CCCC(CNC(=O)c2ccc(-c3ccccc3)cc2)C1 (configuration not stated) | 75 | nt | 1.0 | -4 | ?
Cc1cccc(OCC(=O)Nc2ccccc2F)c1 | 25 | nt | 0.4 | 1 | -3%
O=C(Nc1cc(C(F)(F)F)ccc1N1CCCCC1)c1cccc([N+](=O)[O-])c1 | -5 | -30 | -0.1 | 1 | 0%
Cc1ccsc1C(=O)NN=C1CCCCCC1 | 6 | nt | 0.8 | nt | nt
CC12CCC(C(=O)Nc3nc4ccccc4s3)(OC1=O)C2(C)C (configuration not stated) | 0 | nt | 5.5 | 21 | 4%
CCOc1cc(NC(=S)NCC2CCCO2)c(OCC)cc1NC(=O)CC(C)C (configuration not stated) | -6 | nt | -0.7 | 0 | -6%
COc1ccccc1C(=O)COC(=O)CSCC(=O)Nc1cc(C)on1 | -10 | nt | 2.5 | nt | nt
COc1cc(CNC2CCCCCCC2)c(Br)cc1OCCO | 2 | nt | 1.6 | nt | nt
O=C(Cc1ccc(Cl)cc1)NCc1nc(-c2ccccc2)no1 | -4 | nt | -4.9 | -6 | 10%
COCC(C)n1c(C)cc(C(=O)CSc2ccc(NC(C)=O)cc2)c1C (configuration not stated) | 5 | -26 | -0.7 | -6 | 0%

As a working copy, part of the list above.
SMILES | Mtb betalactam | YopH PTP inh | RecA splice inh | Arbovirus inh | Mtb growth | others
CCOc1cc(NC(=S)NCC2CCCO2)c(OCC)cc1NC(=O)CC(C)C (configuration not stated) | -6 | nt | -0.7 | 0 | -6%
COc1ccccc1C(=O)COC(=O)CSCC(=O)Nc1cc(C)on1 | -10 | nt | 2.5 | nt | nt
COc1cc(CNC2CCCCCCC2)c(Br)cc1OCCO | 2 | nt | 1.6 | nt | nt
O=C(Cc1ccc(Cl)cc1)NCc1nc(-c2ccccc2)no1 | -4 | nt | -4.9 | -6 | 10%
COCC(C)n1c(C)cc(C(=O)CSc2ccc(NC(C)=O)cc2)c1C (configuration not stated) | 5 | -26 | -0.7 | -6 | 0%

Following part
SMILES | Mtb betalactam | YopH PTP inh | RecA splice inh | Arbovirus inh | Mtb growth | others
COC(=O)c1c(NC(C)=O)sc(C(=O)Nc2ccccc2C)c1C | -3 | nt | -1.0 | -3 | -4%
CCN(Cc1ccccc1)S(=O)(=O)c1ccc(C(=O)N(CCCN(C)C)c2nc3c(F)cccc3s2)cc1 | -1 | nt | 10 | nt | nt
CCC(C)NCC(=O)Nc1ccc([N+](=O)[O-])cc1C(=O)Nc1ccccc1F (configuration not stated) | -6 | nt | -1.9 | -1 | 6%
CN(C)C(=O)c1cn(-c2ccccc2)nc1-c1cccs1 | 5 | -15 | 0.1 | 2 | -8%
CCOc1ccc(N=C2NC(=O)S/C2=C\c2ccc(OC)cc2)cc1 | 5 | -27 | -2.9 | 2 | -6%
Cn1c(/N=C/c2ccc3c(c2)OCO3)nc2ccccc21 | 12 | -55 | 0.8 | 1 | -13%
O=C(CCCCCCN1C(=O)c2ccccc2C1=O)Nc1nccs1 | 0 | -4 | -0.2 | -2 | 0%
CCOc1ccc(NC(=O)CCN2CCN(S(=O)(=O)c3cc(Cl)ccc3OC)CC2)cc1 | 41 | -9 | 1.6 | -10 | 4%
CN(CC(=O)Nc1ccccc1Br)C(=O)c1ccncc1 | 1 | nt | 2.5 | nt | nt
CCCC1CC(c2csc(N)n2)CCO1 (configuration not stated) | -2 | -31 | 0.4 | 1 | -11%
O=C(c1ccc(Oc2ccc([N+](=O)[O-])cc2Cl)cc1)N1CCCC1 | 5 | nt | 0.1 | 3 | 13%
Cc1cc(C)c(C#N)c(SCC(=O)Nc2ccc(S(=O)(=O)Nc3onc(C)c3C)cc2)n1 | -5 | -22 | -1.2 | 14 | 2% | Arbovirus inh repeat=6
O=C(c1ccco1)N1CCCC(c2nc3c(nnn3Cc3ccccc3)c(=O)[nH]2)C1 (configuration not stated) | 6 | nt | 0.9 | nt | nt
Cc1ccc(Oc2ccccc2NC(=O)C2=COCCO2)cc1 | 0 | nt | 3.6 | nt | nt
O=C(Cc1n[nH]c(=O)c2ccccc12)OCC(=O)N(Cc1ccccc1)Cc1ccccc1 | -6 | nt | 7.7 | nt | -3%
CC1CN(c2oc(Cc3cccc4ccccc34)nc2C#N)CC(C)O1 (configuration not stated) | 15 | -17 | 0.0 | 0 | -6%
COc1cccc(C2C(C(=O)c3cccs3)=C(O)C(=O)N2CCN2CCOCC2)c1 (configuration not stated) | -3 | nt | -3.3 | nt | nt
Cc1ccc(NC(=O)COc2ccccc2C(=O)NCCN(C)C)cc1 | 1 | nt | 0.6 | 14 | 11%
C=CCn1c(SCc2cccc(OC)c2)nnc1-c1ccncc1 | -4 | nt | -3.0 | nt | nt
Cc1c(C)c2ccc(OCC(=O)N3CCOCC3)c(C)c2oc1=O | -12 | nt | 0.0 | 2 | 3%
O=C(c1cccs1)N1CCCc2ccccc21 | 46 | -29 | 0.0 | 9 | 6%
CC1C(=O)N2CCCc3cc(S(=O)(=O)N(C)Cc4ccccc4)cc1c32 (configuration not stated) | 6 | nt | 1.9 | nt | nt
O=c1c2ccccc2nc(SCc2cn3ccsc3n2)n1-c1ccc(F)cc1 | 63 | -20 | 16 | -5 | 4%
COc1ccc(CC(=O)Oc2ccc(Br)cc2F)cc1S(=O)(=O)N1CCOCC1 | -6 | nt | 11 | nt | nt
Cc1ccc(NC(=O)CCN2C(=O)C3CCCCC3C2=O)cc1[N+](=O)[O-] (configuration not stated) | -11 | nt | 0.3 | nt | nt
O=C(Oc1ccc2ccccc2c1)c1cncc(Br)c1 | 94 | -14 | 1.6 | -2 | 56%
CCOC(=O)CNC(=O)Cn1cnc2c(nnn2-c2cccc(OC)c2)c1=O | -4 | nt | -4.9 | nt | nt
CCN(CC(=O)Nc1ccccc1OC)CC(=O)Nc1ccccc1-c1ccccc1 | 6 | nt | 1.5 | -16 | 8%
CCCn1c(=NC(=O)CCS(=O)(=O)c2ccccc2)sc2cc(S(N)(=O)=O)ccc21 | 4 | nt | -2.0 | nt | nt
CC1=Nn2c(nc(-c3ccccc3)c2-c2ccccc2)NC(=O)C1Br (configuration not stated) | 1 | -24 | 3.2 | 3 | 0%
COc1ccc(S(=O)(=O)N(Cc2ccccc2)c2ccccc2C(=O)Nc2ccccc2C(=O)NCc2ccco2)cc1 | 0 | -12 | 4.3 | -9 | 5%
COc1cccc(/C=C2\SC(=S)N(CCCC(=O)N3CCCCC3)C2=O)c1 | 68 | nt | 1.8 | nt | nt
CCc1cccc(C)c1NC(=O)c1ccoc1C | 7 | -43 | -3.0 | -6 | -2%
O=C(c1ccc(=O)[nH]c1)N1CCN(S(=O)(=O)c2cc(C(F)(F)F)ccc2Cl)CC1 | -1 | nt | -0.6 | nt | nt
O=C(O)c1ccc2c(c1)C(=O)N(N1C(=O)c3ccccc3C1=O)C2=O | -2 | -42 | -6.6 | -2 | -10%
Cc1cc(NC(c2cccnc2)c2c(C)[nH]c3ccccc23)no1 (configuration not stated) | -6 | -8 | 1.0 | 2 | -12%
CC1Cc2nc(SCC(=O)N3CCN(c4ccccc4)CC3)n(CCc3ccccc3)c(=O)c2S1 (configuration not stated) | 5 | -32 | 14 | -16 | 14%
CSc1ccc(-c2sc(Nc3cccc4ccccc34)n[n+]2-c2ccccc2)cc1 | 81 | nt | 25 | nt | nt
CS(=O)(=O)N(CCC#N)Cc1ccc(/C=C2\C(=O)Nc3ccccc32)o1 | -10 | nt | 1.5 | 21 | 2%
O=C1CCC(C(=O)N2CCC(CO)(Cc3ccc(Cl)cc3)CC2)=NN1 | -14 | nt | -3.2 | 5 | -5%

Next part; the last two above are carried over.
SMILES | Mtb betalactam | YopH PTP inh | RecA splice inh | Arbovirus inh | Mtb growth | others
CS(=O)(=O)N(CCC#N)Cc1ccc(/C=C2\C(=O)Nc3ccccc32)o1 | -10 | nt | 1.5 | 21 | 2%
O=C1CCC(C(=O)N2CCC(CO)(Cc3ccc(Cl)cc3)CC2)=NN1 | -14 | nt | -3.2 | 5 | -5%
CN1C(=O)/C(=C/c2ccc(-c3ccccc3[N+](=O)[O-])o2)SC1=Nc1ccc(Cl)c(C(=O)O)c1 | 9 | 1 | 45* | -7 | 0%
O=c1[nH][nH]c(C(F)(F)F)c1C=Nc1ccccc1 | -6 | -51 | nt | 6 | -11%
CC1CCC(NC(=O)c2ccc3c(c2)S(=O)(=O)c2ccccc2C3=O)CC1 (configuration not stated) | 13 | nt | -1.0 | nt | 2%
CCOC(=O)C1=C(C)NC(C)=C(C(=O)OCC)C1c1ccccc1/C=C/C(=O)OC(C)(C)C | -3 | nt | -0.3 | nt | 12%
COc1ccc(NC(=O)Cc2ccccc2)cn1 | -4 | nt | 0.8 | 2 | -1%
Cc1nnc(N/N=C/c2ccc(-c3ccc(Br)cc3)o2)n1N | 100 | nt | 0.2 | -6 | ?
CCOC(=O)C1=C(C)NC2=C(C(=O)CCC2)C1c1ccsc1 (configuration not stated) | nt | 2 | -5.2 | -2 | 8%
O=C(c1ccccc1)N1CCC(CC2CC(c3ccc(Cl)cc3)=NO2)(C(=O)NCC2CCCCC2)CC1 (configuration not stated) | 73 | nt | 5.8 | nt | nt
COc1ccc(CN(C)CC(=O)Nc2sc3c(c2C#N)CCC3)cc1OC | 5 | nt | 2.4 | 16 | 3%
O=C(NNS(=O)(=O)c1ccc(F)cc1F)c1csc(-c2cccnc2)n1 | -4 | nt | -40 | nt | 15%
N#Cc1c(SCC(N)=O)nc2c(c1-c1ccncc1)CCCC2 | 0 | nt | -1.8 | 1 | -14%
Cc1ccc(C)c(SCc2nc3sc(C(=O)O)c(C)c3c(=O)[nH]2)c1 | -5 | nt | 3.3 | nt | -9%
COc1ccc(N2CCN(CC(=O)Nc3cc(C)on3)CC2)cc1 | 0 | -4 | -0.2 | 1 | 0%
C/C(CC(=O)Nc1cccnc1)=N\NC(=O)C(C)Oc1ccc(Cl)cc1Cl (configuration not stated) | -12 | nt | 1.5 | nt | -9%
CCN1CCCC1CNC(=O)C(=O)Nc1cccc(OC)c1 (configuration not stated) | 1 | 7 | -2.0 | 7 | 1%
COC(=O)CCCC(=O)NC1CCCc2c1cnn2-c1ccc(F)cc1F (configuration not stated) | 3 | nt | 0.3 | nt | nt
CCNc1nc(N2CCCC2)nc(N2CCCC2)n1 | 6 | nt | 1.2 | 11 | 2%
O=C1CC2(CCN(C(=O)c3ccc(Br)cc3)CC2)Oc2ccccc21 | -10 | nt | 1.9 | nt | nt
Cc1cc(C(=O)CSc2nc3ccccc3c(=O)[nH]2)c(C)n1CC1CCCO1 (configuration not stated) | -4 | nt | 0.2 | 3 | 0%
CC(NC(=O)Cc1ccccc1)C1COc2ccccc2O1 (configuration not stated) | -1 | nt | -4.7 | -3 | 5%
OC1CCN(Cc2cn(Cc3ccccc3)nc2-c2cc3ccccc3o2)CC1 | 7 | nt | nt | -31 | 5%
Cc1cc(SCC(=O)NCCC2=CCCCC2)nc2ccccc12 | 0 | 17 | 7.1 | 3 | 8%
S=c1nc[nH]c2c1[nH]c1ccc(Cl)cc12 | -4 | nt | -0.3 | nt | -5%

Assay outcomes: PubChem BioAssay, several laboratories
